# Source: PubChem BioAssay
# Rango release inh = qHTS Assay for Inhibitors of RanGTP induced Rango (Ran-regulated importin-beta cargo) - Importin beta complex dissociation; Snurportin-1 (Homo sapiens) + GTP-binding nuclear protein Ran (Homo sapiens) + Importin …; 0.071% of 340,000 active; AID 540253, 2011; Potency, µM (doses to about 46.1 µM), for inactives: at the top dose activity change, negative = inhibition; Biochemical FRET Rango-importin beta, RanGTP-induced dissociation; active means falling FRET ratio curve, often poorly fitted, with flat reads before Ran was added; inconclusive means other falling curves, or compound fluorescence or quenching; inactive means flat or rising ratio curve;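 also: potency is read from the fitted curve at half-maximal effect; % of control where 0% means no effect; nearly all actives have a fitted effect of over 45% in size; -100% = wells without RanGTP and RCC1; the record marks most hits as doubtful in a second field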
#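 Rango/importin beta premix (0.1/0.25 uM final), PBS + 1 mM DTT + 0.02% Tween-20 + 0.1% BSA; cpd 5 min RT; FRET pre-read; + RanGTP-RCC1 (0.6 uM Ran, 2 mM GTP, 0.2 uM RCC1); 45 min RT; FRET post-read, ex 430, em 486/530 nm.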
# Rango-impB inh = qHTS Assay for Inhibitors of Rango (Ran-regulated importin-beta cargo) - Importin beta complex formation | Importin subunit beta-1 (Homo sapiens), Q14974 | Rango CFP/YFP FRET sensor + importin beta, 45 min | Potency, µM (top dose mostly 92.2 µM), without a hit: at the top dose inhibition of complex formation | 0.031% of 340,000 active | AID 540263, 2011; active = rising FRET ratio curve, often small or poorly fitted; inconclusive = mostly compound fluorescence or quenching in the first reads; inactive = flat curves in all reads;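 also: potency is read from the fitted curve at half-maximal effect; 0% = DMSO wells and 100% = buffer wells lacking importin beta; nearly all actives have a fitted effect of over 15% in size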
# Target sequence (Q14974 whole entry, looked up): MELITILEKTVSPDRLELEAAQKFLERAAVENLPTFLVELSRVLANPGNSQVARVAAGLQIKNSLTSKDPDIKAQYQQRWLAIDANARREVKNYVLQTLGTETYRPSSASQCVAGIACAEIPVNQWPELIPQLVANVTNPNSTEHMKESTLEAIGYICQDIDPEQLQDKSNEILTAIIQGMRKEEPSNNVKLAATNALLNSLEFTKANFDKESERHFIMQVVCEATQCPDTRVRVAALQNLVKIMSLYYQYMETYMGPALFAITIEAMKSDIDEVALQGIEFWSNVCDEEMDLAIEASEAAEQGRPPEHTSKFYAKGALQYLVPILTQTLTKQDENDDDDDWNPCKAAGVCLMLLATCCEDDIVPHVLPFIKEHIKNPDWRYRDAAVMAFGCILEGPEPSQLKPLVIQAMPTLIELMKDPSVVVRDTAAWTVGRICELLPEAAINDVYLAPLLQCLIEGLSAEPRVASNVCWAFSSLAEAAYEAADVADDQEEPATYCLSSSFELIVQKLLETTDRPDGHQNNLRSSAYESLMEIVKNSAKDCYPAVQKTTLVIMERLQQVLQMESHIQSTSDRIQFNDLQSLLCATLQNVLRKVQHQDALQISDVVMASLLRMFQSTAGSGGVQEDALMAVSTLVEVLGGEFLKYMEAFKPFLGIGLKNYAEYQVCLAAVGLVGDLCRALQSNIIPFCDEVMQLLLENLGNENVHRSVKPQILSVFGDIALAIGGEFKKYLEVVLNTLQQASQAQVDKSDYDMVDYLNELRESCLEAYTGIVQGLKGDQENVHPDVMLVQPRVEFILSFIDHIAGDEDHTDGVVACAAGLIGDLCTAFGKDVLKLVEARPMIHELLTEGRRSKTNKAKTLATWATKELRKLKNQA
#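 FRET biosensor Rango (snurportin 1 IBB between N-terminal EYFP and C-terminal Cerulean), 50 nM in PBS/1 mM DTT/0.02% Tween-20/0.1% BSA, preincubated 5 min RT with compound; 0.125 microM importin beta added, 45 min RT, CFP/YFP FRET ratio read.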
# GLA inh pH 4.5 = qHTS Assay for Inhibitors of Human alpha-Galactosidase at pH 4.5 | Alpha-galactosidase A (Homo sapiens), P06280 | purified enzyme, 4-MU-alpha-Gal fluorescence, pH 4.5 | activity change, negative = inhibition, % at 105 µM | 230,000 tested, under 10 active; inconclusive = small, poorly fitted or top-dose-only inhibition, or a rising curve; inactive = flat fitted curve, though single readings scatter; no compound was filed as active;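 also: 0% = full activity with enzyme and -100% = basal without enzyme; dose as in the result columns while the protocol names 77 µM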
# miR-21 FLuc = qHTS Assay for Modulators of miRNAs and/orActivators of miR-21; AID 2288, 2010; 340,000 tested, under 10 active; Potency, µM (highest dose often 38.3 µM), for inactives: at the top dose reporter change, positive = more light; HeLa miR-21 FLuc reporter, luciferase, 48 h; active = well fitted rising curve with a large enough effect; inconclusive = small, poorly fitted or top-dose-only effect; inactive = no such curve, though single readings can be large or run the other way;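 also: % of control where 0% means no effect; miR-21 action dims this reporter so a rising signal means less miR-21 action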
#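 HeLa miR-21-FLuc reporter line, endogenous miR-21; 2000 cells/well in DMEM/10% FBS; compound titration up to ~40uM final, 48 h, 37 degree Celsius; luciferase detection reagent, 15 min lysis, CCD luminescence.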
# Starred values were filed as active, the others as inactive; ? = inconclusive; / = no result given; & = joins results of further samples. The list is partial; count on the stated rates, not on these rows.
GLA inh pH 4.5	Rango-impB inh	miR-21 FLuc	Rango release inh	canonical_smiles
-10.4	-1.6%	-1.5%	-3.6%	COC(=O)c1ccc(NC(=O)C(=O)N2CCN(C(=S)Nc3cccc(OC)c3)CC2)cc1
-2.5	-0.5%	23.2%	-7.5%	CCS(=O)(=O)c1ccc(O)c(NC(=O)Nc2ccc(C(C)(C)C)cc2)c1
-5.3	0.2%	-10.6%	6.9%	COc1ccc(OC)c(S(=O)(=O)n2cnc3cc(C)c(C)cc32)c1
-1.6	-1.9%	-5.3%	10.8%	COc1ccc(C)cc1S(=O)(=O)N(CC(=O)Nc1cccc([N+](=O)[O-])c1)c1cc(C)cc(C)c1
-1.7	-0.5%	-22.4%&-18.7%	2.4%	COc1ccc(NC(=O)C(c2ccc(C)cc2)N(C)C(=O)Cc2cccs2)cc1 (stereo not drawn)
/	-1.2%	/	-4.4%	O=C(CNC(=O)C1CCCC1)Nc1ccccc1Br
/	-2.8%	-35.3%	9.6%	CC1(C)Nc2ccccc2C(=O)N1c1ccccc1
0.4	2.1%	-25.6%	-7.6%	Cc1cc(-c2csc(NC(=O)c3cc4ccccc4o3)n2)c(C)n1C
/	3.8%	-1.8%	-5.9%	COc1ccc(-c2cc(C(=O)Nc3cc(OC)c(OC)c(OC)c3)no2)cc1
-4.6	-3.2%	-9.7%	1.8%	Cc1ccc(NC(=O)c2cccc3c2C(=O)N(C2CCCCC2)C3)cc1
0.6	-0.4%	-9.5%	-12.2%	Nc1ccc(Nc2ccccc2N)cc1
1.4	0.7%	-43.5%	0.4%	O=C(c1ccccc1-c1nc(-c2ccc(Cl)cc2)no1)N1CCCC1

# More structures.
GLA inh pH 4.5	Rango-impB inh	miR-21 FLuc	Rango release inh	canonical_smiles
-23.8	-2.5%	1.5%	0.8%	O=C1CC(c2ccc(F)cc2)C(n2cncn2)C(O)=C1C1NCCc2ccccc21 (stereo not drawn)
-4.8	0.0%	7.3%	-6.5%	O=C1CCCCC1C(Nc1ccc(Br)cc1)c1ccccc1 (stereo not drawn)
/	1.0%	0.5%	24.3%	CC1(C)OC(=O)C=C(CC2NS(=O)(=O)OC3CCCCC23)O1 (stereo not drawn)
11.3	0.0%	-41.7%	-2.7%	COc1ccnc(Oc2ccc(C)cc2C)c1C#N
/	-2.3%	-0.5%	9.0%	O=C(OCCN=C1NS(=O)(=O)c2ccccc21)c1cccc([N+](=O)[O-])c1
/	1.4%	/	3.5%	O=C(C[C@H]1C/C=C\CC[C@@H](Cc2ccc(F)cc2)C(=O)OC[C@H]2CCCN2C1=O)N[C@H](CO)Cc1ccccc1
-0.5	0.0%	-0.4%	-4.4%	Cc1cc(OCc2nn[nH]n2)c2c(C)c(CC(=O)O)c(=O)oc2c1
-3.1	0.9%	-6.3%	-16.1%	COc1ccc(CCn2c(-c3ccc(F)cc3)nc3c(c(=O)c4ccccc4n3C)c2=O)cc1OC
/	-2.3%	0.4%	10.1%	Cc1cc(OC(C)C(=O)NCc2ccncc2)c2c(C)cc(=O)oc2c1 (stereo not drawn)
5.0	0.8%	-1.2%	0.9%	CN1CCN(C(=O)C2=C[C@@H](c3ccccc3)C[C@@H](OCc3ccc(CO)cc3)O2)CC1
/	-4.1%	/	12.1%	COc1cc(C(=O)NNC(=O)c2ccc(F)cc2)ccc1OCC(=O)N1CCOCC1
-2.8	0.0%	-19.1%	-13.9%	CSc1nc2ccc(NC(=O)c3ccc(Cl)s3)cc2s1

# Following part
GLA inh pH 4.5	Rango-impB inh	miR-21 FLuc	Rango release inh	canonical_smiles
/	-0.3%	-0.7%	5.7%	CCOC(=O)c1c(C)[nH]c(C)c1S(=O)(=O)NCc1ccccc1C
/	2.9%	/	-12.7%	CCCCN(C(=O)c1cc(Cl)nc2ccccc12)c1c(N)n(CCCC)c(=O)[nH]c1=O
10.3	-5.1%	9.3%	-2.3%	Cc1ccc2cc(CCNC(=O)c3ccc4c(c3)OCO4)c(=O)[nH]c2c1
-9.0	-1.3%	-5.7%	-13.3%	CCOC(=O)c1ccc(-n2ccnc2)c(NC(=O)c2ccc(Cl)cc2)c1
/	5.8%	-0.3%	1.2%	O=C(NCCN1CCOCC1)C(=O)NCC1OCCCN1S(=O)(=O)c1cc(F)ccc1F (stereo not drawn)
-9.3	?	-28.4%	-17.1%	Cc1cc(=O)n(CCc2ccccc2)c(O)c1C#N
0.2	-1.8%	-7.4%	-9.3%	COc1ccc(Cc2nnc(Nc3ccc(Cl)cc3)[nH]c2=O)cc1
3.8	-1.8%	-8.5%	-5.0%	Cc1cc2n(c(=O)c1C#N)CCCN2c1cccc(Cl)c1
-7.2	-0.9%	0.6%	-4.1%	Cc1cc(C)c2oc(C(=O)N(Cc3ccccc3)c3ccccn3)cc(=O)c2c1
3.6	-4.8%	-27.2%	-3.5%	Cc1ccnc(NC(=O)c2ccc(N3C(=O)CCC3=O)cc2)c1
/	-0.5%	/	8.2%	O=C(NCC(c1ccco1)N1CCc2ccccc21)c1ccccc1F (stereo not drawn)
/	-1.8%	-16.9%	6.1%	COc1ccc(OCC(=O)Nc2ccc(S(=O)(=O)N3CCCCC3)cc2)cc1

# Shown with two lines to a compound: entries from further up
# Results follow in this order: GLA inh pH 4.5	Rango-impB inh	miR-21 FLuc	Rango release inh
COc1ccc(Cc2nnc(Nc3ccc(Cl)cc3)[nH]c2=O)cc1
 : 0.2	-1.8%	-7.4%	-9.3%
COc1ccc(NC(=O)C(c2ccc(C)cc2)N(C)C(=O)Cc2cccs2)cc1 (stereo not drawn)
 : -1.7	-0.5%	-22.4%&-18.7%	2.4%
COc1ccc(OCC(=O)Nc2ccc(S(=O)(=O)N3CCCCC3)cc2)cc1
 : /	-1.8%	-16.9%	6.1%
Nc1ccc(Nc2ccccc2N)cc1
 : 0.6	-0.4%	-9.5%	-12.2%

# An excerpt from above in order of the GLA inh pH 4.5 value, ascending.
Compound	GLA inh pH 4.5
CCOC(=O)c1ccc(-n2ccnc2)c(NC(=O)c2ccc(Cl)cc2)c1	-9.0
Cc1cc(C)c2oc(C(=O)N(Cc3ccccc3)c3ccccn3)cc(=O)c2c1	-7.2
COc1ccc(Cc2nnc(Nc3ccc(Cl)cc3)[nH]c2=O)cc1	0.2
Cc1ccnc(NC(=O)c2ccc(N3C(=O)CCC3=O)cc2)c1	3.6
Cc1ccc2cc(CCNC(=O)c3ccc4c(c3)OCO4)c(=O)[nH]c2c1	10.3

# The list goes on:
GLA inh pH 4.5	Rango-impB inh	miR-21 FLuc	Rango release inh	canonical_smiles
-0.4	-4.0%	-1.0%	-1.3%	CC(=O)Nc1ccc(NCN2C(=O)C3C4CCC(C4)C3C2=O)cc1 (stereo not drawn)
5.4	0.3%	-7.0%	1.0%	Cc1cc(Oc2ccc(-c3nnc(-c4ccccc4)o3)cc2[N+](=O)[O-])ccc1Cl
-0.2	3.2%	1.3%	-3.5%	COC(=O)/C(=C\C=C\c1ccccc1)NC(=O)c1ccccc1
8.4	/	1.3%	/	Cn1c(SCC(=O)NCc2ccc(F)cc2)nc2c([nH]c3ccccc32)c1=O
-10.1	?	-3.2%	-12.5%	COc1ccc(CNC(=O)Cn2cc3c(n2)CCCCC3)cc1
/	-0.4%	-12.8%	4.4%	C[C@@H]1CCC2[C@](C)(CO)[C@@H](O)CC[C@]2(C)[C@@]12CCC(CO)(CCO)O2 (stereo partly drawn)
/	4.3%	6.9%	37.0%	Cc1nc(NC(=O)CN2CCN(c3ccccc3F)CC2)sc1C(=O)N(C)C
3.4	2.3%	-12.6%	-3.3%	O=C(NCc1ccc(F)cc1)c1cnn2ccccc12
/	-1.1%	0.2%	1.0%	Cn1c(SCC(=O)Nc2ccc3c(c2)OCCO3)nnc1-c1ccncc1
/	-1.9%	-38.9%	0.6%	COc1ccccc1C(=O)CC(=O)c1ccccc1
/	-2.3%	/	13.4%	O=C(COC(=O)c1ccc(S(=O)(=O)N2CCOCC2)cc1)Nc1ccccc1OC(F)F
1.3	-1.2%	-5.3%	-13.1%	O=C(NC1CC1)C1CCN(C2CCN(C(=O)/C=C/c3cccc(F)c3F)CC2)CC1

# Going on with the list.
GLA inh pH 4.5	Rango-impB inh	miR-21 FLuc	Rango release inh	canonical_smiles
/	-1.6%	/	-10.1%	COc1ccc(Cl)cc1NC(=O)CN(C)C(=O)CCc1nc2ccccc2c(=O)[nH]1
-11.5	0.5%	-22.0%	-1.6%	CN1C=CC=C/C1=C1\SC(=S)N(C2CCCCC2)C1=O
10.5	-0.7%	1.3%	1.0%	COCCNC(=O)C(c1ccc(Cl)cc1)N(C(=O)Cn1nnc2ccccc21)c1cccnc1 (stereo not drawn)
7.0	-1.8%	-0.4%	42.3%	Cc1cc(C)nc(NS(=O)(=O)c2ccc(NC(=O)Cn3c(=O)oc4ccccc43)cc2)n1
/	-0.9%	-5.8%	-22.2%	Cc1c(C)c2ccc(O[C@@H]3O[C@H](CO)[C@H](O)[C@H](O)[C@H]3O)c(C)c2oc1=O
/	1.2%	-2.4%&-7.2%	-10.4%	Cc1ccc(-n2nc3c(=O)n(CCCC(=O)NCCc4ccccc4)nc(C)c3c2C)cc1
8.5	-2.1%	6.2%	-5.8%	CCn1c(SCC(=O)N/N=C/c2ccccc2OCC(=O)O)nnc1-c1ccccc1
-6.5	/	-30.0%	/	Cc1cc2nc(-c3ccc(SCC(=O)NC(C)C)nc3)[nH]c2cc1C
-0.9	-3.1%	-0.2%	2.9%	CCNC(=S)NN=C1CCC(C(C)(C)C)CC1 (stereo not drawn)
5.2	2.1%	-0.6%	2.1%	COc1ccc(CNC(=O)CSc2nnnn2-c2ccc(O)cc2)cc1
/	-1.2%	0.4%	?	CCOC(=O)N1CCC(NC(=O)CS(=O)(=O)Cc2nc(-c3cccc(Cl)c3)oc2C)CC1
/	-0.1%	4.0%	-0.8%	COc1ccc(S(=O)(=O)N[C@@H](CSCc2ccccc2)C(=O)O)cc1

# Entries of single compounds as entered above. Screens in order: GLA inh pH 4.5 | Rango-impB inh | miR-21 FLuc | Rango release inh
# COc1ccc(S(=O)(=O)N[C@@H](CSCc2ccccc2)C(=O)O)cc1 is entered as / | -0.1% | 4.0% | -0.8%
# Cc1ccc(-n2nc3c(=O)n(CCCC(=O)NCCc4ccccc4)nc(C)c3c2C)cc1 is entered as / | 1.2% | -2.4%&-7.2% | -10.4%

# Going on with the list.
GLA inh pH 4.5	Rango-impB inh	miR-21 FLuc	Rango release inh	canonical_smiles
/	-0.3%	-16.5%	-5.8%	COc1ccccc1C(=O)NC(=S)Nc1ccc2[nH]c(=O)[nH]c2c1
-8.2	-0.5%	2.2%	1.1%	Cc1ccc(CNC(=O)c2ccccc2CCc2ccccc2)cc1
/	0.6%	/	0.6%	CC1CCC(NC(=O)CN2C(=O)NC(C)(C)C2=O)CC1 (stereo not drawn)
/	-0.8%	0.0%&-5.9%	-23.4%	Cc1cc2[nH]c(=O)c(=O)[nH]c2cc1S(=O)(=O)N1CCN(c2ccccc2F)CC1
2.3	?	-0.7%	-8.5%	O=C1COc2ccc(C(=O)COC(=O)CCSc3ccccc3)cc2N1
8.0	-2.7%	-37.7%	-11.9%	Cc1ccc(NC(=O)C2OCCc3ccccc32)cc1 (stereo not drawn)
7.4	-3.2%	14.0%	-10.8%	S=C(NNc1cccc(Cl)c1)NC1CCCCC1
/	0.0%	/	-5.0%	CC(C)(C)c1ccc(OCCC(=O)Nc2cccc(S(=O)(=O)NC3=NCCCCC3)c2)cc1
-8.3	-3.8%	-16.2%	-12.6%	CC1=CC(=C2N=C(c3ccccc3)OC2=O)C=C(C)O1
/	-2.0%	-1.8%	1.9%	CN(CC(=O)N1CCOCC1)S(=O)(=O)c1cc(Cl)ccc1Cl
0.1	-3.3%	-2.2%	2.4%	O=C(O)CCCC(=O)Nc1ccccc1-n1ccnc1
